High-throughput results deposited in PubChem BioAssay by National Center for Advancing Translational Sciences (NCATS).
PMP22 txn prim – Cell-based coincidence reporter assay to measure PMP22 gene transcription in S16 Pmp22-F2sN cells - Primary screen | S16 Pmp22-F2sN Schwann cells (luciferase reporters placed in the Pmp22 gene), FLuc/NLuc coincidence luminescence, 24 h | Potency, µM (doses to about 57.5 µM), inactives show top-dose activity change, negative = inhibition, most hits filed as inhibitors | hit rate 2% among 43,000 | AID 1508649, 2021; active = clear falling dose curves in both reporters; inconclusive = both reporters move, but less clearly or upward; inactive = either reporter flat; the % is the NLuc reporter signal; further: on the % scale 0 is the no-effect control and ±100 the full control effect; some results filed as inactive show a strong effect at the top dose
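Reporter cells (S16 Pmp22-F2sN, 500–1,000 per well) exposed to compounds for 24 h, 37C, 5% CO2; lysis with FLuc read after 10 min, then Stop&Glo and NLuc read after 10 min.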
HTT promoter inh – Primary qHTS for Identification of Small Molecule Inhibitors of Huntingtin Promoter Activity; HEK293 HTT promoter firefly luciferase reporter (activity 0% = vehicle and -100% = no light), 24 h; hit rate 0.93% among 48,000; AID 1508623, 2021; Potency, µM (doses to about 57.5 µM), for the others: at the top dose activity change, negative = inhibition, most hits filed as inhibitors; active means well fitted inhibition curve with a large enough effect; inconclusive means small, poorly fitted or top-dose-only effect; inactive means no such curve, though single readings can be large or run the other way; further: nearly all actives have a fitted effect of over 50% in size
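HEK293 luciferase promoter-reporter cells (2,500/well) plated 24 h, then compounds added at up to 57.5 uM final for 24 h at 37 °C. Firefly luminescence by Dual-Glo, normalized to vehicle (0%) and zero RLU (-100%).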
The depositor's hits bear a star; ? = inconclusive; · = not tested or not shown. Potency means the concentration at half of the fitted maximal effect.

SMILES	PMP22 txn prim	HTT promoter inh
CC1CCN(C(=O)CN2CC(C)Sc3ccccc32)CC1 (centres undefined)	2%	-12%
O=C(OCc1cc(=O)n2nc(C3CC3)sc2n1)c1ccc(NC(=O)c2ccccc2Cl)cc1	?	-26%
CCC(C)NC(=O)CSc1nc2cc3c(cc2c(=O)n1CCCC(=O)NCCc1ccc(OC)c(OC)c1)OCO3 (centres undefined)	?	-19%
Cc1ccc(Cl)cc1N1CCN(C(=O)Cn2nc(C)c3sc4ccccc4c3c2=O)CC1	13%	-13%
Cc1nn(C)c2c1c(C(F)(F)F)cc(=O)n2CC(=O)NC(C)(C)C	-22%	-5%
CCNc1cc(N2CCN(C3CCCCC3)CC2)c2noc3c2c1C(=O)c1ccccc1-3	-2%	-3%
CC(C)Cn1cc(NC(=O)NCc2ccccc2Cl)c2ccccc2c1=O	-5%	-6%
CCOc1ccccc1NC(=O)CSc1nc2c(oc3ccccc32)c(=O)n1-c1ccc(F)cc1	-21%	-21%
Cc1cccc(C)c1-n1ncc(C(=O)NCc2ccc3c(c2)OCO3)c1C1CCN(C(=O)OC(C)(C)C)CC1	?	-18%
Cc1ccc(Cn2ccn(CC(=O)Nc3ccccc3C(F)(F)F)c(=O)c2=O)cc1	-2%	-26%
CC(C)c1ccc(NC(=O)c2ccc(CN3CC(=O)N4CCCCC4C3=O)cc2)cc1 (centres undefined)	-64%	-33%
Cc1cccc(-c2nc(SCC(=O)Nc3cc(C)on3)c3c(=O)n(C)c(=O)n(C)c3n2)c1	-3%	-10%
CCCCc1nc2ccccc2n2c(-c3ccc(OC)cc3)c3c(=O)n(C)c(=O)n(C)c3c12	?	-8%
CCc1cccc(NC(=O)CSc2nnc(-c3cc4occc4n3C)n2-c2ccccc2C)c1	10%	?
O=C(CSc1ncc(CO)n1Cc1ccc(F)cc1)NCc1ccco1	-29%	1%
COc1cccc(NC(=O)CCC(=O)N2Cc3ccccc3Oc3ncccc32)c1	1%	-3%
CC(C)(O)c1ccccc1CC[C@@H](SCC1(CC(=O)O)CC1)c1cccc(/C=C/c2ccc3ccc(Cl)cc3n2)c1	·	11%
CCOC(=O)c1cccc(NC(=O)c2cc3cc4ccc(C)cc4nc3o2)c1	-5%	1%
CCc1ccc(Nc2nc(N)nc(CSc3nc4ccccc4s3)n2)cc1	-20%	-28%
COc1ccc(C2NC(=O)NC(C)=C2C(=O)Nc2cc(C)cc(C)c2)c(OC)c1 (centres undefined)	-9%	-1%
COc1ccc(OC)c(CCNC(=O)c2c3c(nc4ccccc24)C(=O)N(C2CCCCC2)C3)c1	?	-27%
Cc1ccc(Cl)cc1NC(=O)CCn1c(=O)c2cccn2c2cccnc21	16%	0%
Cc1ccc(CNC(=O)C(=O)NCC(c2ccco2)S(=O)(=O)c2ccc(C)cc2)cc1 (centres undefined)	?	4%
O=c1ccn([C@@H]2O[C@H](CO)[C@H](O)[C@H]2O)c(=O)[nH]1	·	?
COc1cccc(NC(=O)CSc2nc3c([nH]c4ccccc43)c(=O)n2-c2ccccc2)c1	?	?

Whole records, quoted from the list. Screens in order: PMP22 txn prim, HTT promoter inh
Cc1ccc(Cl)cc1NC(=O)CCn1c(=O)c2cccn2c2cccnc21 is entered as 16%, 0%
CC(C)c1ccc(NC(=O)c2ccc(CN3CC(=O)N4CCCCC4C3=O)cc2)cc1 (centres undefined) is entered as -64%, -33%
O=c1ccn([C@@H]2O[C@H](CO)[C@H](O)[C@H]2O)c(=O)[nH]1 is entered as ·, ?

In another format: entries from further up
CCc1cccc(NC(=O)CSc2nnc(-c3cc4occc4n3C)n2-c2ccccc2C)c1
  PMP22 txn prim: 10%	HTT promoter inh: ?
O=C(CSc1ncc(CO)n1Cc1ccc(F)cc1)NCc1ccco1
  PMP22 txn prim: -29%	HTT promoter inh: 1%

Continued:
SMILES	PMP22 txn prim	HTT promoter inh
Cc1nc(SCC(=O)Nc2ccc(Br)cc2)[nH]c(=O)c1Cc1ccccc1	-1%	?
O=C(NC1CCCC1)c1cc(Nc2cccc(C(F)(F)F)c2)nc2ccccc12	?	-13%
COc1cc(OC)cc(C(=O)NCCc2csc3nc(-c4ccccc4F)nn23)c1	2%	-8%
O=C(CCS(=O)(=O)c1ccccc1)N(Cc1cccnc1)c1nc2c(F)cccc2s1	11µM*	15%
O=C(Nc1ccccc1)c1cccc(N2CCCS2(=O)=O)c1	-35%	-19%
CCOc1ccc(C(=O)Nc2ccc(-c3nc4cc(C(C)C)ccc4o3)cc2)cc1Cl	10%	?
Cc1ccc(Cn2cc(S(=O)(=O)c3cccc(Cl)c3)c(=O)c3cc(F)c(N4CCCCC4)cc32)cc1	6%	-5%
CCOC(=O)c1nc(Nc2ccc(C(=O)OC(C)C)cc2)c2ccccc2n1	?	-9%
CCn1cc(/C=C(\NC(=O)c2ccc(OC)c(OC)c2)C(=O)NCCCn2ccnc2)c2ccccc21	-9%	-3%
COc1ccccc1NC(=O)c1sc2nc(N3CCOCC3)c3c(c2c1N)CC(C)(C)OC3	6%	0%
Cc1cc(C)c2c(=O)cc(CSCC(=O)Nc3nnc(C)s3)[nH]c2c1	19%	1%
Cc1cc(OCC(=O)Nc2ccc(C(=O)OC3CCCCC3)cc2)ccc1Cl	0%	3%
CCn1c(CN2CCC(C)CC2)nc2cc(NC(=O)c3ccccc3[N+](=O)[O-])ccc21	-15%	-15%
CC(NC(=O)C1CCN(S(=O)(=O)c2ccc3c(c2)oc(=O)n3C)CC1)c1ccccc1 (centres undefined)	-2%	-12%
Cc1ccc(C(=O)N/C(=C\c2cn(S(=O)(=O)N(C)C)c3ccccc23)C(=O)NCCCn2ccnc2)cc1	?	0%
COc1ccc(OC)c(NC(=O)Cn2c(CCC(=O)O)ccc2-c2ccccc2)c1	19%	-13%
O=C(NCCCN1CCN(c2ccccc2F)CC1)c1cc2c(s1)-c1ccccc1OC2	?	-27%
CCC(Sc1nnc(-c2ccc(OC)c(OC)c2)c(-c2ccc(OC)c(OC)c2)n1)C(=O)NC1CCCC1 (centres undefined)	?	-5%
CCN(c1ccccc1)c1nnc(NC(=O)Nc2cccc(C(F)(F)F)c2)s1	-5%	?
O=C(Nc1ccc(Br)cc1)c1ccc(F)c(S(=O)(=O)N2CCc3ccccc32)c1	?	14µM*
COc1ccc(N2CCN(C(=O)Nc3ccc(Cl)cc3)CC2)cc1	-2%	?
O=C(O)C1CCC1	·	1%
COC(=O)c1nc2n(n1)C(c1cccc(Cl)c1)C(C(=O)Nc1ccccc1OC)=C(C)N2 (centres undefined)	-5%	-9%
Cc1nn(C)c2c1c(C(F)(F)F)cc(=O)n2C(C)C(=O)NCCc1ccc(Cl)cc1 (centres undefined)	?	0%
CCc1ccc(CNC(=O)CSCc2cnn(-c3ccccc3)c2-n2cccc2)cc1	-9%	-14%
SMILES	PMP22 txn prim	HTT promoter inh
CCc1ccc(NC(=O)[C@H](Cc2ccccc2)N2Cc3ccccc3C2=O)cc1	-15%	-13%
COC(=O)c1ccccc1NC(=O)CSc1nc2nc(C)cc(C)n2n1	-5%	-9%
CC(=O)N1CCc2c(sc3c2c(=O)n(-c2ccccc2)c(=O)n3Cc2cccc(C(F)(F)F)c2)C1	?	-23%
COc1cc(OC)c(NC(=O)C(CC(C)C)N2Cc3ccccc3C2=O)cc1Cl (centres undefined)	?	-30%
CCc1ccc(NC(=O)CC(c2ccc(C)cc2)N2Cc3ccccc3C2=O)cc1 (centres undefined)	-20%	-10%
CCC(C)NC(=O)Cn1c(=O)n(CC2CCC(C(=O)NC)CC2)c(=O)c2sccc21 (centres undefined)	0%	-11%
CCc1ccccc1NC(=O)CSc1nc2c(oc3ccccc32)c(=O)n1-c1ccccc1F	-11%	-30%
COc1ccccc1NC(=O)c1sc2nc(-c3cc4cc(Cl)ccc4oc3=O)[nH]c(=O)c2c1C	-1%	-4%
COc1cc(Cl)c(C)cc1NC(=O)c1sc2nc(C)cc(C)c2c1N	-10%	4%
Cc1cccn2c(Nc3ccc4c(c3)OCCO4)c(-c3ccc(Br)o3)nc12	-74%	18%
CCOc1ccc(NS(=O)(=O)c2ccc3c4c(cccc24)C(=O)N3)cc1	-10%	?
CCc1noc(-c2ccc(NCc3ccccc3)c([N+](=O)[O-])c2)n1	?	-10%
CCN(c1ccc(C)cc1C)S(=O)(=O)c1nnc(NC(=O)CC(C)C)s1	-3%	6%
CCOCCn1c(=O)c2c(nc3n2CCN3c2ccc(C)c(C)c2)n(C)c1=O	4%	-3%
CCN1CCc2nc3sc(C(=O)c4ccc(F)cc4)c(N)c3cc2C1	-60%	-14%
Cc1ccc(-n2c(=O)c3ccc(C(=O)NCc4ccccc4Cl)cc3n(CC(=O)Nc3cccc(F)c3)c2=O)cc1	?	-13%
CC(=O)Nc1sc2c(c1-c1nc3ccccc3s1)CNC2	·	?
COc1ccc(C)cc1NC(=O)Cc1c(C(=O)O)c(C)cn1C	-15%	-14%
Oc1ccc(Nc2nc3ccccc3n3cnnc23)cc1	-40%	21%
COc1ccc(CCNC(=O)c2c[nH]n3c(=O)c(Cc4ccccc4Cl)c(C)nc23)cc1OC	-123%	?
O=C(Nc1ccc(Cl)cc1)C1CCN(c2nc3ccccc3nc2C(F)(F)F)CC1	-10%	1%
CCC(=O)N1CCc2cc(Br)cc(S(=O)(=O)N3CCC(C(=O)Nc4ccccc4F)CC3)c21	?	-3%
Cc1ccc(CCNC(=O)c2ccc3[nH]c(C)c(C)c3c2)cc1	-1%	-15%
Cc1ccc(N2C(=O)NC(NS(=O)(=O)c3ccccc3)(C(F)(F)F)C2=O)cc1C (centres undefined)	9%	-17%
CCOC(=O)c1c(Oc2ccc(C(C)=O)cc2)nnc(-c2ccccc2)c1-c1ccccc1	?	?

The final 6 entries of the section before open the next one:
SMILES	PMP22 txn prim	HTT promoter inh
COc1ccc(CCNC(=O)c2c[nH]n3c(=O)c(Cc4ccccc4Cl)c(C)nc23)cc1OC	-123%	?
O=C(Nc1ccc(Cl)cc1)C1CCN(c2nc3ccccc3nc2C(F)(F)F)CC1	-10%	1%
CCC(=O)N1CCc2cc(Br)cc(S(=O)(=O)N3CCC(C(=O)Nc4ccccc4F)CC3)c21	?	-3%
Cc1ccc(CCNC(=O)c2ccc3[nH]c(C)c(C)c3c2)cc1	-1%	-15%
Cc1ccc(N2C(=O)NC(NS(=O)(=O)c3ccccc3)(C(F)(F)F)C2=O)cc1C (centres undefined)	9%	-17%
CCOC(=O)c1c(Oc2ccc(C(C)=O)cc2)nnc(-c2ccccc2)c1-c1ccccc1	?	?
CCC(c1ccc(O)cc1)C(CC)c1ccc(O)cc1 (centres undefined)	·	?
COc1ccc(C)cc1NC(=O)CSc1nc(=O)n(Cc2ccncc2)c2c1CCC2	-22%	-4%
N#Cc1cccc(NC(=O)C2CCN(S(=O)(=O)c3ccc4c(c3)CCCN4C(=O)C3CCC3)CC2)c1	?	?
CCCN1CCc2nc(N3CCN(CC)CC3)ncc2C1	-3%	-11%
Cc1ccc(C)c(NC(=O)N2CC=C(c3c[nH]c4ccccc34)CC2)c1	?	?
COc1ccc(-c2cc(C(=O)N3CCCCC3C)no2)cc1OC (centres undefined)	5%	37%
COc1ccccc1Nc1nn2c(=O)c3ccc(C(=O)N4CCCC(C)C4)cc3nc2s1 (centres undefined)	?	?
Cc1cc(C)cc(NC(=O)CN(c2cccc(C)c2C)S(=O)(=O)c2ccccc2)c1	-36%	?
CCN1CCN(c2cc3c(cc2F)c(=O)c(S(=O)(=O)c2ccccc2)cn3C)CC1	-9%	-9%
CC(C)C(=O)Nc1ccccc1OCc1cc(=O)n2ccccc2n1	1%	-1%
Cc1ccc(CSc2ncc(Cl)c(C(=O)NCc3ccccc3)n2)cc1	?	1%
Cc1nn2c(-c3ccco3)ccnc2c1-c1ccc(Br)cc1	-20%	23%
O=C(CSc1ncc2c(n1)-c1cc(Cl)ccc1N(Cc1ccccc1F)S2(=O)=O)Nc1cccc(C(F)(F)F)c1	3%	-20%
CC(=O)N1c2ccccc2C(=O)C1N1CCN(c2ccccc2)CC1 (centres undefined)	0%	-18%
CC(=O)c1cccc(NC(=O)C(C)n2c(=O)cc(C)c3c(C)nn(-c4ccccc4)c32)c1 (centres undefined)	?	-10%
N#Cc1cccc(Nc2ncnc3c2cnn3-c2cccc(Cl)c2)c1	?	27%
N#Cc1cccc(NC(=O)C2CCN(S(=O)(=O)c3ccc4[nH]c(=O)ccc4c3)CC2)c1	-10%	-5%
COc1cccc(NC(=O)C2CCN(c3nc4ccccc4nc3C(F)(F)F)CC2)c1	?	?
CC(C)CN(c1ccccc1)S(=O)(=O)c1nnc(NC(=O)C2CCCCC2)s1	25%	-5%
COc1ccc(-c2nc(C)c(CCNC(=O)c3ccc(C(F)(F)F)cc3)s2)cc1OC	-51%	-1%
COc1ccc(CNC(=O)CSc2nc3ccccc3nc2Cc2ccccc2)cc1	0%	-20%
COc1ccc(-c2nc(CS(=O)(=O)CC(=O)NCCc3ccc(C)cc3)c(C)o2)cc1	-12%	-10%
COc1ccccc1NC(=O)CSc1nc2ccccc2c2nc(-c3ccccc3)nn12	-6%	5%
CCN(C(=O)CSc1nc(-c2ccc(C(C)C)cc2)no1)c1ccccc1	-33%	-28%

Hits appear at their usual frequency. About 2.6% of those tested had a hit in this group.
